Source: PubChem BioAssay
Env fusion inh = inhibitors of HIV Env-mediated cell fusion. AID 651610. HeLa-JRFL Env/CEM21 cell fusion, luciferase. inhibition, % at 12.3 µM. 360,000 tested, 1.1% active;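 active means mean replicate inhibition score of at least 50 and every replicate individually at or above 50; inconclusive means only one of the two criteria met; inactive means mean below 50 and not all replicates reaching 50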;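 further: 0% = plate neutral controls and 100% = maraviroc near 300 nM; one replicate is shown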
Numbers without * were called inactive; ? = inconclusive; [ ] = dose if it differs, or a comment. Not all compounds are listed; rates above refer to the full screens.

SMILES	Env fusion inh
CCS(=O)(=O)Nc1ccc2c(c1)C(=O)N(C)[C@H]1CC[C@H](CC(=O)NCCCN3CCOCC3)O[C@@H]1CO2	5[16.7 µM]
C/C=C/c1ccc2c(c1)O[C@H](CN(C)C(=O)Cc1cccnc1)[C@H](C)CN([C@@H](C)CO)S2(=O)=O	10[16.7 µM]
COc1cccc(CNC(=O)[C@H]2CCCN2C(=O)[C@H]2CCCN2C(=O)c2cccs2)c1	7
COc1ccc2c3c(n(C)c2c1)[C@@H](CO)N(CC1CCCCC1)CC31CCN(C(C)=O)CC1	3[16.7 µM]
COc1cccc(-c2cn(CC[C@H]3CC[C@H](NS(=O)(=O)Cc4ccccc4)[C@H](CO)O3)nn2)c1	7[16.7 µM]
CCCCN1CC(COCc2ccccc2)Oc2cccc(NCc3cc(OC)c(OC)c(OC)c3)c2S1(=O)=O (stereo unspecified)	-9
O=C(C[C@@H]1C[C@H]2c3cc(NC(=O)c4ccc5c(c4)OCO5)ccc3O[C@H]2[C@@H](CO)O1)NC1CCCCC1	-8[16.7 µM]
CO[C@@H]1CN(C)C(=O)c2ccc(NC(=O)Nc3cc(F)ccc3F)cc2OC[C@H](C)N(C)C[C@H]1C	7[16.7 µM]
CO[C@@H]1CN(C)C(=O)c2ccc(NC(C)=O)cc2OC[C@@H](C)N(C(=O)Cc2cccnc2)C[C@@H]1C	2[16.7 µM]
CCCN1[C@@H]2Cn3c(ccc(-c4cccc(F)c4)c3=O)[C@H]1[C@@H](C(=O)NCC1CC1)[C@@H]2CO	22[16.7 µM]
O=C(C[C@H]1CC[C@H]2[C@@H](COC[C@H](O)CN2Cc2nccs2)O1)NCc1ccccc1Cl	14[16.7 µM]
O=C(Nc1ccc2c(c1)[C@H]1C[C@@H](CC(=O)N3CCc4ccccc4C3)O[C@H](CO)[C@H]1O2)C1CCOCC1	-5[16.7 µM]
CO[C@H]1CN(C)C(=O)c2ccc(NS(=O)(=O)c3ccc(Oc4ccccc4)cc3)cc2OC[C@@H](C)NC[C@H]1C	2[16.7 µM]
CO[C@H]1CN(C)C(=O)c2cc(NC(=O)Nc3c(C)noc3C)ccc2OC[C@H](C)N(C)C[C@H]1C	3[16.7 µM]
CO[C@@H]1CN(C)C(=O)c2cc(NS(=O)(=O)c3cn(C)cn3)ccc2OC[C@@H](C)N(C)C[C@H]1C	-9[16.7 µM]
Cc1cc(Br)cn2c(Cc3cccc(F)c3)c(-c3cccc(Cl)c3)nc12	7
C[C@@H]1CCCCO[C@@H](CN(C)CC2CC2)[C@H](C)CN([C@@H](C)CO)C(=O)c2cc(NC(=O)Nc3ccc4c(c3)OCO4)ccc2O1	-11[16.7 µM]
C[C@@H]1CN([C@@H](C)CO)C(=O)c2c(c3ccccc3n2C)-c2ccccc2CO[C@@H]1CN(C)C(=O)NC1CCCCC1	-70[16.7 µM]
CN(C)C(=O)C[C@H]1C[C@H]2c3cc(NC(=O)c4cccnc4)ccc3O[C@H]2[C@H](CO)O1	-17[16.7 µM]
CO[C@H]1CN(C)C(=O)c2cc(NC(=O)Nc3c(C)noc3C)ccc2OC[C@@H](C)N(CCC(F)(F)F)C[C@@H]1C	-21[16.7 µM]

Fetched by structure from the list above, five records:
SMILES	Env fusion inh
CO[C@@H]1CN(C)C(=O)c2ccc(NC(=O)Nc3cc(F)ccc3F)cc2OC[C@H](C)N(C)C[C@H]1C	7[16.7 µM]
CN(C)C(=O)C[C@H]1C[C@H]2c3cc(NC(=O)c4cccnc4)ccc3O[C@H]2[C@H](CO)O1	-17[16.7 µM]
CO[C@H]1CN(C)C(=O)c2cc(NC(=O)Nc3c(C)noc3C)ccc2OC[C@@H](C)N(CCC(F)(F)F)C[C@@H]1C	-21[16.7 µM]
C/C=C/c1ccc2c(c1)O[C@H](CN(C)C(=O)Cc1cccnc1)[C@H](C)CN([C@@H](C)CO)S2(=O)=O	10[16.7 µM]
CO[C@H]1CN(C)C(=O)c2ccc(NS(=O)(=O)c3ccc(Oc4ccccc4)cc3)cc2OC[C@@H](C)NC[C@H]1C	2[16.7 µM]

Carrying on.
SMILES	Env fusion inh
COCCNC(=O)[C@H]1[C@H](CO)[C@H]2Cn3c(ccc(-c4ccccc4F)c3=O)[C@@H]1N2S(C)(=O)=O	-3[16.7 µM]
Cc1ccc(S(=O)(=O)Nc2cccc3c2O[C@@H](CN(C)C(=O)Nc2cccc4ccccc24)[C@H](C)CN([C@@H](C)CO)C3=O)cc1	10[16.7 µM]
CC(C)(C)c1cccc(N/C(=C\C(=O)c2ccccc2)c2ccccc2)c1	8
CC(C)NC(=O)N(C)C[C@@H]1Oc2ccc(N(C)C)cc2CC(=O)N([C@H](C)CO)C[C@@H]1C	4[16.7 µM]
CCCC(=O)Nc1ccc2c(c1)C(=O)N(C)[C@@H]1CC[C@@H](CC(=O)NCc3cccc(F)c3)O[C@H]1CO2	-4[16.7 µM]
CCCCOCC1CN(CCCC)S(=O)(=O)c2c(Oc3ccc(SC)c(C)c3)cccc2O1 (stereo unspecified)	12
Cc1noc(C)c1NC(=O)NCC[C@@H]1CC[C@@H](NC(=O)c2ccc(F)cc2)[C@H](CO)O1	-22[16.7 µM]
Cc1noc(C)c1C(=O)N(C)C[C@@H]1OCc2ccccc2-c2ccccc2C(=O)N([C@H](C)CO)C[C@@H]1C	?
COc1cccc(-c2cnc3c(c2)C(=O)N([C@H](C)CO)C[C@H](C)[C@H](CN(C)S(=O)(=O)c2cccc(F)c2)O3)c1	-6[16.7 µM]
COc1cccc(NC(=O)N(C)C[C@H]2OCc3ccccc3-c3c(n(C)c4ccccc34)C(=O)N([C@H](C)CO)C[C@@H]2C)c1	4[16.7 µM]
COc1ccc(C[C@@H]2CCn3cc(nn3)COC[C@@H](CC(C)C)NC2=O)cc1	4[16.7 µM]
Cc1ccc(S(=O)(=O)N[C@@H]2CC[C@H](CCNC(=O)c3ccccc3F)O[C@H]2CO)cc1	66*[16.7 µM]
O=C(C[C@@H]1C[C@H]2c3cc(NC(=O)Nc4ccc(C(F)(F)F)cc4)ccc3O[C@H]2[C@H](CO)O1)NCc1cc(F)ccc1F	23[16.7 µM]
CCCNC(=O)N1CC2(C1)CN(C(=O)c1cccnc1)[C@@H](CO)c1[nH]c3cc(OC)ccc3c12	3[16.7 µM]
CN1C(=O)c2cc(NS(C)(=O)=O)ccc2OC[C@H]2O[C@H](CC(=O)NC3CCCCC3)CC[C@H]21	-14[16.7 µM]
COC(=O)C[C@H]1C[C@H]2c3cc(NC(=O)Nc4ccccc4)ccc3O[C@H]2[C@H](CO)O1	0[16.7 µM]
C[C@@H]1CN([C@H](C)CO)S(=O)(=O)c2ccc(C#Cc3ccccc3F)cc2O[C@H]1CN(C)CC1CCOCC1	20[16.7 µM]
CN1C(=O)c2cc(NC(=O)Cc3cccs3)ccc2OC[C@H]2O[C@@H](CC(=O)N[C@@H]3CCN(Cc4ccccc4)C3)CC[C@H]21	2[16.7 µM]
COC(=O)C[C@H]1C[C@H]2c3cc(NC(=O)NC4CCCC4)ccc3O[C@H]2[C@H](CO)O1	-10[16.7 µM]
Nc1[nH]c(C(=O)c2ccccc2)c(-c2ccc(Cl)cc2)c1C(=O)c1c[nH]c2ccc(F)cc12	34

Grouped by structure: those above containing a CF3 group
SMILES	Env fusion inh
CO[C@H]1CN(C)C(=O)c2cc(NC(=O)Nc3c(C)noc3C)ccc2OC[C@@H](C)N(CCC(F)(F)F)C[C@@H]1C	-21[16.7 µM]
O=C(C[C@@H]1C[C@H]2c3cc(NC(=O)Nc4ccc(C(F)(F)F)cc4)ccc3O[C@H]2[C@H](CO)O1)NCc1cc(F)ccc1F	23[16.7 µM]

Part of the list above, with the structure last.
Env fusion inh | Molecule
4[16.7 µM] | COc1cccc(NC(=O)N(C)C[C@H]2OCc3ccccc3-c3c(n(C)c4ccccc34)C(=O)N([C@H](C)CO)C[C@@H]2C)c1
4[16.7 µM] | COc1ccc(C[C@@H]2CCn3cc(nn3)COC[C@@H](CC(C)C)NC2=O)cc1
66*[16.7 µM] | Cc1ccc(S(=O)(=O)N[C@@H]2CC[C@H](CCNC(=O)c3ccccc3F)O[C@H]2CO)cc1
23[16.7 µM] | O=C(C[C@@H]1C[C@H]2c3cc(NC(=O)Nc4ccc(C(F)(F)F)cc4)ccc3O[C@H]2[C@H](CO)O1)NCc1cc(F)ccc1F

The list continues:
SMILES	Env fusion inh
Cc1ccc(-c2cc(NC(=O)Cc3c(C)[nH]c4ccccc34)ccc2Nc2cccnc2)cc1	-73
COCCN1Cc2cc(C(=O)OC)c3c(c2C1=O)c1cc(F)ccc1n3S(=O)(=O)c1ccc(C)cc1	-5
Cc1ccc(S(=O)(=O)N(C)C[C@@H]2Oc3ccc(NS(=O)(=O)c4cn(C)cn4)cc3CC(=O)N([C@@H](C)CO)C[C@H]2C)cc1	-13[16.7 µM]
COC(=O)[C@]12C[C@H](CC(=O)NCCC(C)C)C(=O)N(Cc3ccccc3)C1=C[C@H](C1CCCC1)O[C@@H]2C	-17
COc1ccc(CNC(=O)C[C@@H]2C[C@@H]3c4cc(NC(=O)C5CCC5)ccc4O[C@@H]3[C@H](CO)O2)cc1	5[16.7 µM]
O=C(NCc1ccccc1)[C@H]1CCCN1C(=O)[C@H]1CCCN1C(=O)c1ccccc1	-14
C[C@@H]1CN([C@H](C)CO)S(=O)(=O)c2ccc(C#CC3CCCC3)cc2O[C@@H]1CN(C)Cc1cncnc1	3[16.7 µM]
CNC[C@H]1OCCCC[C@H](C)Oc2ccc(NC(=O)c3ccccc3)cc2C(=O)N([C@H](C)CO)C[C@H]1C	4[16.7 µM]
CC(=C1N=C(c2ccccc2)OC1=O)c1cccs1	-22
Cc1noc(C)c1NC(=O)Nc1ccc2c(c1)C(=O)N([C@@H](C)CO)C[C@@H](C)[C@H](CN(C)CC1CC1)OCCCC[C@H](C)O2	-2[16.7 µM]
CCCN(C)C[C@H]1Oc2cc(C3=CCCC3)ccc2S(=O)(=O)N([C@H](C)CO)C[C@H]1C	-4[16.7 µM]
C[C@H]1CN([C@@H](C)CO)C(=O)CCCn2cc(nn2)CO[C@H]1CN(C)Cc1ccc2cccnc2c1	-16[16.7 µM]
CC(C)NC(=O)Nc1ccc2c(c1)CC(=O)N([C@H](C)CO)C[C@@H](C)[C@H](CN(C)Cc1ccc3c(c1)OCO3)O2	-21[16.7 µM]
COc1ccc(Cn2c(C)c(CC(=O)Nc3ccc(Oc4cccnc4)c(C)c3)c3ccccc32)cc1	14
C[C@H]1CN([C@@H](C)CO)C(=O)c2ccccc2-c2ccccc2CO[C@@H]1CN(C)C(=O)[C@@H](Cc1ccccc1)N(C)C	16[16.7 µM]
COC(=O)[C@@H]1[C@@H](CO)[C@@H]2Cn3c(cccc3=O)[C@@H]2N1CC1CCOCC1	-2[16.7 µM]
COc1ccc(N2C(=O)c3n[nH]c(C)c3C2c2ccccc2)cc1 (stereo unspecified)	-5
CCNC(=O)c1cc2c(c(-c3cccc(-c4cccc(F)c4)c3)n1)[C@H](CCO)N([S@@](=O)C(C)(C)C)C2	-7[16.7 µM]
OCC1COC(c2ccccc2)=N1 (stereo unspecified)	-17
CCCc1cc2c(OC)ccc(O)c2c(=O)n1C	19
C[C@@H]1CCCCO[C@@H](CN(C)Cc2ccncc2)[C@@H](C)CN([C@@H](C)CO)C(=O)c2cc(N(C)C)ccc2O1	12[16.7 µM]
CCCNC(=O)Nc1ccc2c(c1)C(=O)N(C)C[C@H](OC)[C@@H](C)CN(C(=O)C1CCCCC1)[C@H](C)CO2	-19[16.7 µM]
O=C(C[C@@H]1CC[C@H]2[C@@H](COC[C@@H](O)CN2Cc2cccc(F)c2)O1)NCc1ccncc1	-9[16.7 µM]
CNC[C@@H]1Oc2ncc(C3=CCCC3)cc2C(=O)N([C@H](C)CO)C[C@@H]1C	-2[16.7 µM]
Cc1ccc(-c2cnc3c(c2)C(=O)N([C@H](C)CO)C[C@@H](C)[C@H](CN(C)S(C)(=O)=O)O3)cc1	7[16.7 µM]
COc1ccc2c3c(n(C)c2c1)[C@@H](CO)N(Cc1ccc(F)cc1)CC31CCN(CC2CCOCC2)CC1	-20[16.7 µM]
COCCOC(=O)N1C(=O)[C@@]2(c3cc(C#Cc4ccc(OC)cc4)ccc31)[C@H](C(=O)N1CCc3cc(OC)c(OC)cc3C1)[C@H]1C(=O)O[C@H](c3ccccc3)[C@H](c3ccccc3)N1[C@@H]2c1ccc(OCCO)cc1	-12[16.7 µM]
CC(C)(C)[S@](=O)N1Cc2cc(C(=O)NCCc3ccncc3)nc(-c3cccc(-c4ccncc4)c3)c2[C@@H]1CCO	2[16.7 µM]
C[C@H](O)[C@@H]1C(=O)N2CCc3c([nH]c4c(-c5ccccc5)cccc34)[C@@H]2C[C@@H]1N(C)C(=O)Nc1cccc2ccccc12	28
